MLL AF4-AF9 inh: inhibitors of AF4 peptide binding to AF9, primary screen, biochemical, AlphaScreen, biotin-AF4 peptide, FLAG-AF9, single point; AID 651704, 2012; inhibition, % at 10 µM; hit rate 0.47% among 350,000;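 active = every replicate reaching a set inhibition limit, whatever the replicate mean, cut at about 25% in these data; inconclusive = mean inhibition reaches that limit but some replicates miss it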;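 note: 0% = plate neutral control median and 100% = total signal loss; the record names both 10 and 1 µM as test concentration; the first replicate is given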
E coli growth: E. coli growth inhibition, primary screen, OD600. Escherichia coli growth, 23 h; active compounds read low. OD600 absorbance (concentration not given with the values). hit rate 0.21% among 330,000;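 active = OD600 absorbance below the run mean of sample wells minus 3.6 SD, in any replicate, cut at about 0.56 in these data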;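 note: stock transfer was 300 nL into about 60 µL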
RanGTP-Imp inh: inhibitors of RanGTP-importin-beta interaction, primary screen, biochemical, FRET, CFP-Ran, YFP-importin-beta, homogeneous; Ran GTPase (GTP-bound) - importin-beta complex; cell-free CFP-Ran/YFP-importin-beta FRET ratio; inhibition, % (test concentration not listed); hit rate 1.1% among 300,000; AID 2216, 2009;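 active = most replicates above 15%; inconclusive = exactly half above 15%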;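 note: 0% = DMSO wells and 100% = Ran loaded with GDP instead of GTP; wells of about 40 µL received 100 nL stock; the first replicate is given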
HNF4A DNA FP: change in binding of human HNF4A to DNA, primary screen, biochemical, fluorescence polarization, FITC-DNA; AID 1224865, 2016; Hepatocyte nuclear factor 4-alpha (Homo sapiens), P41235; 1 h; hit rate 0.3% among 360,000; activity change, % at 10 µM; in the data active = activity change above about 30%, passing the limit was not always enough;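 note: controls were the assay level and a saturating level of protein; the project sought stronger binding though the title names inhibitors; some compounds called inactive have numbers as strong as hits; positive values seem to mean higher polarization but the record does not say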
Target sequence (P41235 whole entry, looked up): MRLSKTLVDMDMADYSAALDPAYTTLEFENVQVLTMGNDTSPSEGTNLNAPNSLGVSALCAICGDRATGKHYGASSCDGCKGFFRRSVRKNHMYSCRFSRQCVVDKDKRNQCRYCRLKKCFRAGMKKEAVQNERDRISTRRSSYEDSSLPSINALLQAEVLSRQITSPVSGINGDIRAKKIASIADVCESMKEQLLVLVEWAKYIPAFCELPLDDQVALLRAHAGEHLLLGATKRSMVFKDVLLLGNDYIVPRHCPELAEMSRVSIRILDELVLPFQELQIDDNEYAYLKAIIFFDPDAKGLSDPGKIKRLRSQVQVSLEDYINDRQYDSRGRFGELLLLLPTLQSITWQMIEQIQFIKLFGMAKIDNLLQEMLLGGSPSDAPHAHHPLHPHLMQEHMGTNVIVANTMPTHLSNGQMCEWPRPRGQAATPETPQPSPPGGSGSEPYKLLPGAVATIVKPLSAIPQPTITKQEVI
Vif TR-FRET: inhibitors of Vif binding to APOBEC3G peptide, primary screen, biochemical, TR-FRET, GST-Vif 1-94, biotin-A3G peptide, dose response retest (AID 1117319); inhibition, %; hits with a dose series show IC50 in µM; TR-FRET GST-Vif / biotin-A3G peptide binding; higher % means a stronger effect; test concentration not given here; strong numbers were not always called active; hit rate 0.57% among 260,000;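 active = above the screen mean plus three standard deviations and confirmed in dose response; inconclusive = results disagree or hit not tested in dose response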;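 note: Vif residues 1-94 fused to GST binding biotinylated APOBEC3G peptide 110-148; 0% = full assay without inhibitor and 100% = GST in place of GST-Vif; retest series ran down from 100 µM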
FGF22 binding: binders of human FGF22 protein, primary screen, FGF22 synaptogenesis inhibitor project, biophysical, thermal shift, single point; Fibroblast growth factor 22 (Homo sapiens), Q9HCT0; recombinant FGF22 thermal shift, SYPRO orange fluorescence; percent of sucrose octasulfate shift, DMSO zero; calls only at 9.99 µM; hit rate 1.5% among 340,000;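 active = melting point raised past a set limit in the mean and every replicate; inconclusive = no clear call; three in four hits are not shown here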
Target sequence (Q9HCT0 whole entry, looked up): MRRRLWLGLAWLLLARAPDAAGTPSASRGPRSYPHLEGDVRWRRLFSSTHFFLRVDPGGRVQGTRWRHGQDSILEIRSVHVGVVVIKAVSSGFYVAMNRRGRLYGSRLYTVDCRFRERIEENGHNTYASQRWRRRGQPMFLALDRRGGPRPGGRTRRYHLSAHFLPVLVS
UCH37 DUB inh: inhibitors of human UCH37 deubiquitinase, primary screen, biochemical, Ub-AMC cleavage, fluorescence; AID 588478, 2011; hit rate 0.33% among 330,000; purified proteasome/UCH37; Ubiquitin carboxyl-terminal hydrolase isozyme L5 (Homo sapiens), Q9Y5K5; inhibition, % (no concentration beside the values);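 active = mean of two replicates above 20%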;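 note: 0% = compound-free wells with enzyme and 100% = wells lacking proteasome; stock transfer was 100 nL into about 20 µL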
Target sequence (Q9Y5K5 whole entry, looked up): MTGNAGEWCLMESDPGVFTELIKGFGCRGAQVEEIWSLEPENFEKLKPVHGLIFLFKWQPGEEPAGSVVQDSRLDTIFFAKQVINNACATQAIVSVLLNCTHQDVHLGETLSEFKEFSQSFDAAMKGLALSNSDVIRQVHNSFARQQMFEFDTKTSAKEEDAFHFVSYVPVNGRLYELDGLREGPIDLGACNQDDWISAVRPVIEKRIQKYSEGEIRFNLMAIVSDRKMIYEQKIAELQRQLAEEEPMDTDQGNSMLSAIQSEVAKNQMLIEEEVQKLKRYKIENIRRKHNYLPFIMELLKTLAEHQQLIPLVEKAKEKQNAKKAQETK
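Signal – fluorescence, ex 355 nm, em 460 nm · System – Proteasome-bound UCH37 · Input – 0.15 nM proteasome as dispensed · Timing – 30 min preincubation with enzyme, 25 min cleavage at room temperature · Read-out basis – percent inhibition of cleavage signal versus uninhibited and no-proteasome wells · Medium – Tris-HCl pH 7.4 with ATP-MgCl2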
* = called active by the depositor; i = inactive; ? = inconclusive; . = not tested or not shown; & = joins results of further samples.

SMILES | MLL AF4-AF9 inh | E coli growth | RanGTP-Imp inh | HNF4A DNA FP | Vif TR-FRET | FGF22 binding | UCH37 DUB inh
O=C(c1ccc(S(=O)(=O)N2CCCCCC2)cc1)N1CCCC(C(F)(F)F)C1 (centres undefined) | -1.2 | 0.64 | 2.3 | -3.2 | 1% | . | 2.1
O=C(Nc1ccc2[nH]ncc2c1)c1ccccc1 | -6.0 | 0.7 | -4.1 | 2.5 | . | i | 4.1
CCOc1ccc(C2/C(=C(\O)c3c(C)[nH]c(C(=O)OC)c3C)C(=O)C(=O)N2CCN(C)C)cc1 (centres undefined) | 0.3 | 0.72 | -0.2 | -2.6 | -1% | i | 7.3
CCn1cc(C(=O)N(CCCN2CCOCC2)Cc2ccco2)c(=O)c2ccc(C)nc21 | . | 0.8 | 1.0 | 2.7 | 3% | . | 1.4
CCc1ccc2nc(N(CCCN(C)C)C(=O)c3ccc(S(=O)(=O)N4CCc5ccccc5C4)cc3)sc2c1 | 0.7 | . | -0.7 | 1.1 | . | i | .
COc1cc(/C=N/NC(=O)c2ccc3nc[nH]c3c2)cc(OC)c1OC(C)=O | 0.0 | . | . | -4.9 | 4% | i | .
O=C(Nc1nnc(CCc2ccccc2)s1)c1ccccc1F | -9.5 | 0.65 | ? | -1.6 | . | i | 1.1
Cc1ccc(S(=O)(=O)c2cc3ccccc3oc2=Nc2ccc3c(c2)OCO3)cc1 | . | 0.72 | -5.9 | 2.6 | 2% | . | 3.6
CCOc1ccc(NS(=O)(=O)c2ccc(C(=O)NCC(c3ccco3)N(C)C)cc2)cc1 (centres undefined) | -0.7 | 0.68 | 5.2 | 0.8 | 4% | i | -1.4
Cc1c(Cl)cccc1NC(=S)NNc1ncc(C(F)(F)F)cc1Cl | . | 0.59 | 2.8 | 0.6 | 1% | . | -1.1
O=C(Nc1ccccn1)c1cc2ccccc2cc1O | . | 0.68 | -11 | -4.3 | . | . | 4.5
O=C(CCC(=O)OC(C(=O)c1ccccc1)c1ccccc1)Nc1ccccc1 (centres undefined) | . | 0.68 | -0.5 | 0.3 | 0% | . | 2.9
O=C(c1ccnc(Cl)c1)N1CCCC(N2CCN(c3ccccc3F)CC2)C1 (centres undefined) | 2.7 | 0.62 | 5.4 | 1.8 | . | i | 1.1
O=C(c1cc(-c2ccc(O)cc2)on1)N1CCN(c2ccccc2)CC1 | 5.0 | 0.63 | 6.5 | 4.2 | . | i | 0.2
O=C(O)[C@H]1CCCC[C@H]1C(=O)Nc1ccc(S(=O)(=O)N2CCCCC2)cc1 | -4.0 | 0.71 | 3.8 | -3.6 | . | i | 5.6
COc1cc(/C=N\n2cnnc2)ccc1OCC(=O)Nc1ccc(C)cc1 | . | . | 2.6 | -2.3 | 1% | . | .
COc1ccc(C2(c3ccc(OC)cc3)NC(=O)N(CC(=O)N(C)C3CCC(C)CC3)C2=O)cc1 (centres undefined) | 2.1 | 0.66 | . | -2.9 | -5% | i | -0.1
O=C(C1CC1)N1CCc2sccc2C1c1ccc(Cl)cc1 (centres undefined) | -1.3 | 0.66 | -3.5 | -3.8 | 3% | i | 2.7
Cn1ccnc1C(O)c1ccc(OCc2ccccc2)cc1 (centres undefined) | . | 0.69 | -2.1 | -1.9 | ? | . | -0.7
CCOC(=O)c1cnc(SC)nc1Sc1ccc(Cl)cc1Cl | . | 0.7 | 1.3 | -2.9 | 1% | . | 5.0
O=C(COC(=O)c1cnc(Cl)c(Cl)c1)NC1CCCC1 | -2.8 | . | . | 1.1 | 1% | i | .
CCCOC(=O)CCCC[C@H]1SC[C@@H](NC(=O)OC)[C@H]1NC(=O)OC | . | 0.69 | -0.7 | 4.6 | -6% | . | 2.6
COCCNC(=O)c1ccc(NS(=O)(=O)c2ccc3[nH]c(=O)[nH]c3c2)cc1 | 1.6 | 0.69 | 1.8 | 1.4 | . | i | -0.8
CCN(CC(=O)Nc1ccccc1OC)C(=O)c1ccccc1Sc1ccccc1C#N | 4.0 | 0.69 | . | 0.6 | -9% | i | 0.4
O=C(NCC(c1ccco1)N1CCc2ccccc2C1)c1ccc(Cl)c([N+](=O)[O-])c1 (centres undefined) | -0.7 | 0.66 | -0.1 | -0.1 | 8% | i | 2.1

The last four entries of the part above are carried over, then new ones follow:
SMILES | MLL AF4-AF9 inh | E coli growth | RanGTP-Imp inh | HNF4A DNA FP | Vif TR-FRET | FGF22 binding | UCH37 DUB inh
CCCOC(=O)CCCC[C@H]1SC[C@@H](NC(=O)OC)[C@H]1NC(=O)OC | . | 0.69 | -0.7 | 4.6 | -6% | . | 2.6
COCCNC(=O)c1ccc(NS(=O)(=O)c2ccc3[nH]c(=O)[nH]c3c2)cc1 | 1.6 | 0.69 | 1.8 | 1.4 | . | i | -0.8
CCN(CC(=O)Nc1ccccc1OC)C(=O)c1ccccc1Sc1ccccc1C#N | 4.0 | 0.69 | . | 0.6 | -9% | i | 0.4
O=C(NCC(c1ccco1)N1CCc2ccccc2C1)c1ccc(Cl)c([N+](=O)[O-])c1 (centres undefined) | -0.7 | 0.66 | -0.1 | -0.1 | 8% | i | 2.1
O=c1[nH]c(/C(Cl)=C/c2cccc(C(F)(F)F)c2)nc2cc(Cl)ccc12 | . | 0.67 | 3.9 | -3.3 | -3% | . | -16
CNC(=S)NNC(=O)c1cccc(N(C)C)c1 | -0.1 | 0.61 | -2.1 | -0.8 | 11% | i | -3.5
Cc1ccc2nc(CSc3nnc(Nc4ccccc4C)s3)cc(=O)n2c1 | 1.5 | 0.72 | ? | -4.2 | 5% | i | -3.1
O=C(/C=C/c1ccccc1)C1C(=O)c2ccccc2C1=O | . | 0.69 | 0.9 | -2.1 | . | . | 7.9
O=Cc1ccccc1Oc1nc(N2CCOCC2)nc(N2CCOCC2)n1 | -3.8 | 0.69 | 0.3 | -0.7 | -1% | i | 5.6
Nc1nc(CSC(=S)N2CCN(c3ccccc3)CC2)nc(Nc2ccccc2)n1 | . | 0.73 | 0.2 | -2.0 | . | . | -0.1
COC(=O)c1cn(NC(=O)COc2ccc(Cl)cc2)c(=O)c2ccccc12 | 1.0 | 0.67 | . | -3.0 | -10% | i | 5.6
CCC1(C)Cc2ccccc2-c2c1c(=O)n(Cc1ccccc1)c1nnnn21 (centres undefined) | . | 0.73 | 3.4 | 3.3 | 2% | . | 7.7
Cc1ccc(NC(=O)[C@H](C)NC(=O)C2CCN(C(=O)[C@@H](NC(=O)OC(C)(C)C)C(C)C)CC2)cc1 | 2.1 | 0.64 | 1.4 | 0.2 | -5% | i | 1.7
Cc1ccc(-n2nc3c(N4CCC(C(=O)NCc5ccc(C)o5)CC4)nnc(C)c3c2C)cc1 | 3.7 | 0.67 | 2.0 | -0.1 | . | i | -40
CCOC(=O)Cc1csc(NC(=O)c2c(O)c3c(n(CC(C)C)c2=O)CCCC3)n1 | . | 0.65 | 0.8 | -4.2 | 2% | i | 0.1
CC(=O)Nc1ccc(-n2c(C)ccc2-c2ccccc2)cc1 | 8.6 | 0.67 | -3.0 | 1.8 | 8% | i | 1.4
Cc1ccc(NC(=O)OCc2cncs2)cc1 | -0.2 | 0.66 | ? | 0.5 | 3% | i | 4.3
CC(NC(=O)CCSc1nc(-c2ccco2)cc(C(F)(F)F)n1)c1ccccc1 (centres undefined) | . | 0.69 | 3.4 | 2.5 | 5% | . | 1.8
OC1CCCN(c2c3c(nc4cc(-c5cccc(Cl)c5)nn24)CCC3)C1 (centres undefined) | . | 0.64 | -1.1 | -1.1 | 13% | . | -144
COc1cccc(N2CCN(C(=O)c3cc(-c4ccccc4)nc4c3cnn4C(C)C)CC2)c1 | 9.4 | 0.72 | . | 4.0 | . | i | -0.9
CC1(C(=O)Nc2cnc3ccccc3c2)CCN1Cc1ccc2ccccc2c1 (centres undefined) | -6.2 | . | . | -3.0 | . | i | .
Clc1cccc(Cc2c(C3CCCCC3)nc3ccc(Br)cn23)c1 | 0.2 | . | . | 2.3 | . | i | .
CCCn1c(Cc2ccccc2)nnc1SCC(=O)N1CCOCC1 | . | 0.7 | 0.5 | 0.4 | 12% | . | 4.1
CCOC(=O)N1CCN(C(=O)Cn2nc(C)n3nc(-c4ccccc4)cc3c2=O)CC1 | -3.6 | 0.67 | 0.0 | -2.7 | . | i | 1.5
Cc1cc(=O)oc2c(CN3CCN(C)CC3)c(O)c(Cl)cc12 | . | 0.7 | 14 | -7.3 | -1% | . | -448
CCN(CC)CCSc1nnc2c3cc(F)ccc3n(Cc3ccccc3)c2n1 | 6.9 | 0.67 | -2.2 | 2.2 | . | i | 5.1
CC(NCCc1ccc(S(N)(=O)=O)cc1)C(=O)NCCc1ccc(F)cc1 (centres undefined) | -13 | 0.71 | 3.9 | 1.1 | -2% | i | 3.6
COc1cccc(CSc2nnc(-c3ccncc3)n2C)c1 | 0.2 | 0.68 | -1.0 | -1.2 | . | i | 3.8
Cc1ccc(F)c(CNC(=O)C2CCC(=O)N(Cc3ccccn3)C2)c1F (centres undefined) | -1.5 | 0.69 | -2.0 | -3.3 | . | i | 0.2
More records
SMILES | MLL AF4-AF9 inh | E coli growth | RanGTP-Imp inh | HNF4A DNA FP | Vif TR-FRET | FGF22 binding | UCH37 DUB inh
CCOC(=O)C1=C(c2ccccc2)Nc2ncnn2C1c1cc(OC)ccc1OC (centres undefined) | . | 0.7 | -1.6 | -2.4 | -2%&-1% | . | 6.6
O=C(CN1CCOCC1)Nc1ccc2c(c1)OC(F)(F)O2 | -1.0 | 0.68 | -1.5 | 3.9 | 3% | i | -5.8
Cn1ccc(NC(=O)c2ccc(Cl)cc2Cl)n1 | 2.0 | 0.64 | . | -0.1 | 2% | i | 0.2
Cc1c(C(=O)NC(C)C)sc2ncn(CC(=O)N3CCC(C)CC3)c(=O)c12 | . | 0.74 | 0.0 | 1.1 | 31% | . | -0.5
O=C(Nc1ccc2c(c1)OCO2)c1ccc2nc[nH]c2c1 | . | 0.75 | 0.8 | 2.1 | ? | . | 1.4
O=C(Nc1ccccc1C(=O)N1CCOCC1)c1cc2ccccc2o1 | 1.4 | 0.68 | -2.3 | -2.1 | . | i | 1.8
O=C(CCc1c[nH]c2ccccc12)Nc1ccc(S(=O)(=O)Nc2ncccn2)cc1 | -1.3 | 0.67 | -1.0 | 12 | . | i | 0.8
NC1=NC(c2ccc(Cl)cc2)C(C(=O)c2ccccc2)N1 (centres undefined) | 2.5 | 0.64 | 1.6 | -0.9 | . | i | 1.2
C/C(=N\N=C(/N)SC1CC(=O)N(c2ccc(Cl)c(Cl)c2)C1=O)c1cccs1 (centres undefined) | -4.5 | . | -3.5 | -3.8 | -1% | i | .
Cc1cccc(C)c1NC(=O)CNC(=O)c1ccc(N2CCCC2=O)cc1 | -1.2 | 0.74 | . | 1.1 | . | i | 3.0
COc1ccc(OC)c(NC(=O)/C=C/c2ccc(S(=O)(=O)N3CCOCC3)cc2)c1 | 4.1 | 0.62 | . | 2.1 | 2% | . | 3.1
Cc1ccc(NC2CC(=O)N(c3ccc(N4CCCCC4)cc3)C2=O)cc1 (centres undefined) | 8.1 | 0.67 | 6.6 | 1.1 | 25% | i | 1.3
O=C(N/N=C/c1ccccc1OCc1ccccc1Cl)c1cccnc1 | 1.0 | . | -1.9 | -7.0 | 4% | i | .

These rows are one share of the data, so the mix of outcomes need not match the whole.
